A1 apoptosis 2: A1 inhibitors via caspase activation, primary screen, cell-based, luminescence, HTS, two replicates; 24,000 tested, under 10 active; caspase activation, % (concentration not given with the values); MEF A1-2A-BIM cells, caspase-Glo luminescence, 3 h; percent of clofoctol response, DMSO zero; AID 2465, 2010; in the data active = caspase activation above about 5.9%;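 note: wells of about 30 µL received 50 nL stock; the first replicate is given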
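System: mouse embryonic fibroblasts co-expressing A1 and BIM (A1-2A-BIM), primed for A1 dependence; amount: 2500 cells/well; doses: 50 nL pinned compound; schedule: cells settled overnight, compound exposure 3 h at 37 °C, 5% CO2; detection: Caspase-Glo 3/7 luminescence, 1 h at room temperature; read-out: Caspase-3/7 activation, seen as rise in luminescence signal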
An asterisk follows results filed as active. A portion of the library, so the mix of outcomes need not match the whole.

smiles	A1 apoptosis 2
Cc1noc(C)c1NC(=O)Nc1ccc2c(c1)CC(=O)N([C@H](C)CO)C[C@H](C)[C@H](CN(C)Cc1ccc(C(=O)O)cc1)O2	0.0
COc1ccc(NC(=O)N(C)C[C@@H]2Oc3ccc(NS(=O)(=O)c4c(C)noc4C)cc3CC(=O)N([C@@H](C)CO)C[C@H]2C)cc1	-0.5
C[C@@H]1CN([C@H](C)CO)C(=O)Cc2cc(NS(=O)(=O)c3ccccc3)ccc2O[C@@H]1CN(C)Cc1ccc(C(=O)Nc2ccccc2N)cc1	-0.2
COc1ccc([Si](C)(C)[C@H]2[C@H](CCO)O[C@@]3(C(=O)N(c4ccccc4)c4ccccc43)[C@@H]2C)cc1	-1.4
C[C@@H]1CN([C@H](C)CO)C(=O)c2cccc(N(C)C)c2O[C@H]1CN(C)Cc1ccccc1	-0.5
C[C@H]1CCCCO[C@@H](CN(C)Cc2ccc(C(F)(F)F)cc2)[C@@H](C)CN([C@@H](C)CO)C(=O)c2cc(NC(=O)Nc3ccc4c(c3)OCO4)ccc2O1	0.2
C[C@H](CO)N1C[C@H](C)[C@@H](CN(C)S(=O)(=O)c2ccc(Cl)cc2)OCCCC[C@H](C)Oc2ccc(NC(=O)Nc3ccccc3)cc2C1=O	0.0
C[C@@H]1CN([C@@H](C)CO)C(=O)c2cc(NC(=O)Cc3ccccc3)ccc2O[C@@H]1CN(C)Cc1ccc(C(=O)O)cc1	0.0
Cc1ccc(S(=O)(=O)N(C)C[C@@H]2OCCCC[C@H](C)Oc3ccc(NC(=O)Nc4cccc5ccccc45)cc3C(=O)N([C@H](C)CO)C[C@H]2C)cc1	0.3
CC(C)NC(=O)Nc1ccc2c(c1)CC(=O)N([C@@H](C)CO)C[C@@H](C)[C@H](CN(C)S(=O)(=O)c1ccc(F)cc1)O2	-0.9
C[C@H]1CN([C@@H](C)CO)C(=O)Cc2cc(NC(=O)Nc3ccc4c(c3)OCO4)ccc2O[C@@H]1CN(C)CC1CCCCC1	-0.4
C[C@H](CO)N1C[C@H](C)[C@@H](CN(C)C)OCCCC[C@H](C)Oc2ccc(NS(=O)(=O)c3ccc(Cl)cc3)cc2C1=O	0.3
Cc1noc(C)c1NC(=O)Nc1cccc2c1O[C@H](CN(C)C(=O)Nc1ccccc1)[C@@H](C)CN([C@H](C)CO)C2=O	-0.1
C[C@H](CO)N1C[C@H](C)[C@H](CN(C)S(=O)(=O)c2ccc(F)cc2)Oc2ccc(NC(=O)Nc3ccc4c(c3)OCO4)cc2C1=O	-1.4
O=C(CCCCCCC(=O)N/N=C/c1cc(O)ccc1[N+](=O)[O-])NO	1.2
CC(C)NC(=O)N(C)C[C@@H]1OCCCC[C@H](C)Oc2ccc(NC(=O)Nc3ccc(F)cc3)cc2C(=O)N([C@@H](C)CO)C[C@H]1C	0.2
C[C@H](CO)N1C[C@H](C)[C@@H](CN(C)C(=O)c2ccccc2)OCCCC[C@H](C)Oc2ccc(NC(=O)C3CCCCC3)cc2C1=O	-0.5
Cc1noc(C)c1NC(=O)Nc1ccc2c(c1)CC(=O)N([C@@H](C)CO)C[C@H](C)[C@@H](CN(C)Cc1ccc(Oc3ccccc3)cc1)O2	-0.6
Cc1ccccc1CN(C)C[C@@H]1OCc2cnnn2CCCC(=O)N([C@@H](C)CO)C[C@@H]1C	0.7
COc1ccc(S(=O)(=O)N(C)C[C@@H]2Oc3ccc(NC(=O)NC(C)C)cc3CC(=O)N([C@H](C)CO)C[C@H]2C)cc1	-0.2
CC(C)NC(=O)N(C)C[C@@H]1OCCCC[C@H](C)Oc2ccc(NC(=O)c3ccccc3)cc2C(=O)N([C@@H](C)CO)C[C@@H]1C	-0.2
COCCOC(=O)N1C(=O)[C@@]2(c3cc(C#CCC(C(=O)OC)C(=O)OC)ccc31)[C@H](C(N)=O)[C@H]1C(=O)O[C@H](c3ccccc3)[C@H](c3ccccc3)N1[C@@H]2c1ccc(OCCO)cc1	-0.4
C[C@@H]1CN([C@H](C)CO)C(=O)c2cc(NC(=O)Nc3ccc(F)cc3)ccc2O[C@@H](C)CCCCO[C@H]1CN(C)C(=O)c1ccccc1	1.3
COc1ccccc1CN(C)C[C@H]1OCc2cnnn2CCCC(=O)N([C@H](C)CO)C[C@@H]1C	-0.4
C[C@H]1CN([C@@H](C)CO)C(=O)c2cccc(NC(=O)C3CCCCC3)c2O[C@@H]1CN(C)S(C)(=O)=O	0.1
C[C@@H]1CN([C@@H](C)CO)C(=O)c2cc(NC(=O)C3CCCCC3)ccc2O[C@@H]1CN(C)S(=O)(=O)c1ccc(Cl)cc1	1.3
Cc1noc(C)c1S(=O)(=O)Nc1ccc2c(c1)C(=O)N([C@@H](C)CO)C[C@@H](C)[C@H](CN(C)C(=O)c1ccncc1)OCCCC[C@H](C)O2	0.8
C[C@H]1CN([C@@H](C)CO)C(=O)c2cc(NC(=O)NC3CCCCC3)ccc2O[C@@H]1CN(C)C(=O)NC1CCCCC1	-0.5
COc1ccc(S(=O)(=O)N(C)C[C@H]2Oc3ccc(NC(=O)Nc4ccc(C(F)(F)F)cc4)cc3C(=O)N([C@@H](C)CO)C[C@@H]2C)cc1	-0.7
C[C@@H]1CCCCO[C@@H](CN(C)Cc2ccccc2)[C@H](C)CN([C@H](C)CO)C(=O)c2cc(NC(=O)CCCN(C)C)ccc2O1	-0.2

Filtered by structure: those above containing a Cl atom
smiles	A1 apoptosis 2
C[C@H](CO)N1C[C@H](C)[C@@H](CN(C)S(=O)(=O)c2ccc(Cl)cc2)OCCCC[C@H](C)Oc2ccc(NC(=O)Nc3ccccc3)cc2C1=O	0.0
C[C@H](CO)N1C[C@H](C)[C@@H](CN(C)C)OCCCC[C@H](C)Oc2ccc(NS(=O)(=O)c3ccc(Cl)cc3)cc2C1=O	0.3
C[C@@H]1CN([C@@H](C)CO)C(=O)c2cc(NC(=O)C3CCCCC3)ccc2O[C@@H]1CN(C)S(=O)(=O)c1ccc(Cl)cc1	1.3

Back to the main list, repeating the three entries before the break.
smiles	A1 apoptosis 2
C[C@H]1CN([C@@H](C)CO)C(=O)c2cc(NC(=O)NC3CCCCC3)ccc2O[C@@H]1CN(C)C(=O)NC1CCCCC1	-0.5
COc1ccc(S(=O)(=O)N(C)C[C@H]2Oc3ccc(NC(=O)Nc4ccc(C(F)(F)F)cc4)cc3C(=O)N([C@@H](C)CO)C[C@@H]2C)cc1	-0.7
C[C@@H]1CCCCO[C@@H](CN(C)Cc2ccccc2)[C@H](C)CN([C@H](C)CO)C(=O)c2cc(NC(=O)CCCN(C)C)ccc2O1	-0.2
C[C@@H]1CN([C@@H](C)CO)C(=O)c2cc(NS(=O)(=O)c3ccc(F)cc3)ccc2O[C@@H]1CN(C)S(=O)(=O)c1ccccc1	-1.0
COc1ccc(S(=O)(=O)Nc2ccc3c(c2)C(=O)N([C@@H](C)CO)C[C@H](C)[C@H](CN(C)CC2CCCCC2)O3)cc1	-0.5
C[C@H](CO)N1C[C@H](C)[C@@H](CN(C)C(=O)CCC(F)(F)F)OCCCC[C@H](C)Oc2ccc(NS(=O)(=O)c3ccc(Cl)cc3)cc2C1=O	1.5
COc1ccc(NC(=O)Nc2ccc3c(c2)C(=O)N([C@H](C)CO)C[C@@H](C)[C@@H](CN(C)C(=O)Nc2ccc(C(F)(F)F)cc2)O3)cc1	2.0
C[C@@H]1CN([C@@H](C)CO)C(=O)c2cccc(NC(=O)Nc3ccc(C(F)(F)F)cc3)c2O[C@H]1CN(C)S(=O)(=O)c1ccccc1	1.6
COc1ccc(S(=O)(=O)N(C)C[C@H]2Oc3c(NS(=O)(=O)c4ccccc4)cccc3C(=O)N([C@H](C)CO)C[C@H]2C)cc1	0.6
C[C@H]1CN([C@@H](C)CO)C(=O)c2cccc(NC(=O)C3CC3)c2O[C@H]1CN(C)Cc1ccc(C(=O)Nc2ccccc2N)cc1	-0.7
C[C@@H]1CCCCO[C@@H](CN(C)C(=O)Nc2ccc(F)cc2)[C@H](C)CN([C@H](C)CO)C(=O)c2cc(NC(=O)NC3CCCCC3)ccc2O1	-1.2
C[C@H]1CN([C@@H](C)CO)C(=O)Cc2cc(NC(=O)NC3CCCCC3)ccc2O[C@H]1CN(C)Cc1ccccc1	0.3
CC(C)NC(=O)N(C)C[C@H]1Oc2c(NS(=O)(=O)c3cccs3)cccc2C(=O)N([C@@H](C)CO)C[C@@H]1C	0.3
C[C@H](CO)N1C[C@H](C)[C@@H](CN(C)Cc2ccc(C(F)(F)F)cc2)OCCCC[C@H](C)Oc2ccc(NC(=O)CCC(F)(F)F)cc2C1=O	0.0
C[C@@H]1CN([C@@H](C)CO)C(=O)c2cc(NC(=O)Nc3ccccc3)ccc2O[C@@H](C)CCCCO[C@@H]1CN(C)Cc1ccncc1	0.9
Cc1noc(C)c1S(=O)(=O)N(C)C[C@@H]1OCCCC[C@@H](C)Oc2ccc(NC(=O)Nc3ccccc3)cc2C(=O)N([C@@H](C)CO)C[C@@H]1C	1.2
C[C@@H]1CN([C@H](C)CO)C(=O)c2cccc(NC(=O)c3cnccn3)c2O[C@H]1CN(C)S(C)(=O)=O	-1.6
C[C@H]1CN([C@@H](C)CO)C(=O)Cc2cc(NC(=O)CCCCCC(=O)Nc3ccccc3N)ccc2O[C@H]1CN(C)S(=O)(=O)c1ccccc1	-0.1
Cc1noc(C)c1S(=O)(=O)Nc1ccc2c(c1)C(=O)N([C@@H](C)CO)C[C@H](C)[C@@H](CN(C)C(=O)Nc1ccccc1)OCCCC[C@@H](C)O2	-0.3
Cc1noc(C)c1NC(=O)N(C)C[C@H]1Oc2ccc(NC(=O)NC3CCCCC3)cc2C(=O)N([C@H](C)CO)C[C@H]1C	-2.0
C[C@@H]1CCCCO[C@@H](CN(C)S(=O)(=O)c2cccs2)[C@H](C)CN([C@@H](C)CO)C(=O)c2cc(NS(=O)(=O)c3ccccc3)ccc2O1	0.7
C[C@@H]1CN([C@@H](C)CO)C(=O)c2cc(NC(=O)NC3CCCCC3)ccc2O[C@H]1CN(C)Cc1ccc(C(F)(F)F)cc1	-0.3
C[C@H](CO)N1C[C@H](C)[C@@H](CN(C)CC2CC2)Oc2ccc(NC(=O)Nc3cccc4ccccc34)cc2CC1=O	0.1
C[C@@H]1CN([C@H](C)CO)C(=O)c2cc(NC(=O)CCC(F)(F)F)ccc2O[C@H]1CN(C)C	1.3
C[C@H](CO)N1C[C@H](C)[C@@H](CN(C)S(=O)(=O)c2ccccc2)Oc2ccc(NS(=O)(=O)c3ccc(Cl)cc3)cc2CC1=O	0.2
C[C@H](CO)N1C[C@H](C)[C@H](CN(C)C(=O)Nc2ccc(F)cc2)Oc2c(NC(=O)NC3CCCCC3)cccc2C1=O	-0.4
C[C@@H]1CCCCO[C@H](CN(C)S(=O)(=O)c2cccs2)[C@@H](C)CN([C@@H](C)CO)C(=O)c2cc(NC(=O)NC3CCCCC3)ccc2O1	0.1
C[C@@H]1CCCCO[C@H](CN(C)C(=O)CCCN(C)C)[C@@H](C)CN([C@@H](C)CO)C(=O)c2cc(NC(=O)c3ccncc3)ccc2O1	-1.2
C[C@H](CO)N1C[C@H](C)[C@@H](CN(C)Cc2ccc(-c3ccccc3)cc2)Oc2ccc(NC(=O)Cc3ccccc3)cc2C1=O	0.5
C[C@@H]1CN([C@H](C)CO)C(=O)c2cc(NC(=O)Nc3ccccc3)ccc2O[C@H]1CN(C)Cc1ccc(C(F)(F)F)cc1	0.7
Cc1noc(C)c1S(=O)(=O)Nc1ccc2c(c1)C(=O)N([C@@H](C)CO)C[C@H](C)[C@H](CN(C)S(=O)(=O)c1ccc(F)cc1)O2	-1.0
O=C(N/N=C/c1c[nH]c2ccccc12)c1ccccn1	-8.6
COc1ccc(CN(C)C[C@H]2Oc3c(NC(=O)Nc4ccc(F)cc4)cccc3C(=O)N([C@H](C)CO)C[C@@H]2C)cc1	-0.3
C[C@@H]1CN([C@H](C)CO)C(=O)c2cc(NC(=O)Nc3ccc(C(F)(F)F)cc3)ccc2O[C@@H](C)CCCCO[C@@H]1CN(C)Cc1ccccc1	-0.2
C[C@H](CO)N1C[C@H](C)[C@@H](CN(C)S(=O)(=O)c2ccc(F)cc2)Oc2c(NC(=O)CCCCCC(=O)Nc3ccccc3N)cccc2C1=O	0.6
C[C@@H]1CN([C@H](C)CO)C(=O)Cc2cc(NS(=O)(=O)c3ccc(F)cc3)ccc2O[C@H]1CN(C)C(=O)Nc1ccc(C(F)(F)F)cc1	-0.5
C[C@@H]1CN([C@H](C)CO)C(=O)c2cc(NS(C)(=O)=O)ccc2O[C@H]1CN(C)S(=O)(=O)c1ccc(F)cc1	0.4
O=C(CCCCCC(=O)Nc1ccccc1O)N/N=C/c1ccc(O)cc1O	-1.3
Cc1noc(C)c1NC(=O)N(C)C[C@@H]1OCCCC[C@H](C)Oc2ccc(NS(=O)(=O)c3ccccc3)cc2C(=O)N([C@@H](C)CO)C[C@H]1C	0.3
COc1ccc(CN(C)C[C@@H]2Oc3ccc(NC(=O)Cc4ccccc4)cc3CC(=O)N([C@@H](C)CO)C[C@@H]2C)cc1	0.0
Cc1noc(C)c1S(=O)(=O)Nc1ccc2c(c1)C(=O)N([C@@H](C)CO)C[C@@H](C)[C@@H](CN(C)C(=O)NC(C)C)OCCCC[C@@H](C)O2	-0.8
C[C@@H]1CN([C@H](C)CO)C(=O)c2cc(NC(=O)CCC(F)(F)F)ccc2O[C@@H]1CN(C)CC1CC1	-0.3
C[C@@H]1CN([C@@H](C)CO)C(=O)c2cc(NC(=O)c3ccccc3)ccc2O[C@@H](C)CCCCO[C@H]1CN(C)C(=O)Nc1ccccc1	-0.5
